2A Renilla – Primary qHTS Assay for Foot and Mouth Disease Virus Antivirals against NCGC Sytravon and CBC Compound Libraries: Renilla Luciferase Signal; AID 1745857, 2022; HEK cells with a luciferase reporter of 2A StopGo recoding; Potency, µM (titrated, usually from 57.5 µM), for the others: at the top dose signal change, negative = less light; actives 0.32% (n = 120,000); active means well fitted falling curve with a large enough effect; inconclusive means small, poorly fitted or top-dose-only effect; inactive means no such curve, though single readings can be large or run the other way; further: nearly all actives have a fitted effect of over 55% in size; overnight with compound
StopGo FLuc – Primary qHTS Assay for Foot and Mouth Disease Virus Antivirals against NCGC Sytravon and CBC Compound Libraries: Firefly Luciferase Signal. HEK cells with a luciferase reporter of 2A StopGo recoding. Potency, µM (series often up to 57.5 µM), without a hit: top-dose signal change, negative = less light. actives 0.23% (n = 120,000). AID 1745856, 2022; active = well fitted falling curve with a large enough effect; inconclusive = small, poorly fitted or top-dose-only effect; inactive = no such curve, though single readings can be large or run the other way; further: nearly all actives have a fitted effect of over 60% in size; overnight with compound
Numbers without * were called inactive; ? = inconclusive; [ ] = dose if it differs, or a comment. On the % scale 0 is the no-effect control and ±100 the full control effect; potency means the concentration at half of the fitted maximal effect. Some of the compounds tested; count on the stated rates, not on these rows.

SMILES	2A Renilla	StopGo FLuc
CCCSc1nc2c(c(=O)[nH]1)C(c1ccc(C)o1)C1=C(CCCC1=O)N2 (centres undefined)	-3%	18%
O=C(OC/C=C/c1ccccc1)C1=NN(C2CCS(=O)(=O)C2)C(=O)CC1 (centres undefined)	1%	20%
CN(CC(=O)NCc1nc(-c2ccccc2)no1)S(=O)(=O)c1ccc2ccccc2c1	18%	-5%
COc1ccc(OC)c(C2CC(=O)Nc3c(-c4ccccc4)nsc32)c1 (centres undefined)	4%	-4%
COc1ccc(NC(=O)Cc2cc(Cl)c3c(c2)OCCCO3)cc1S(=O)(=O)N(C)C	?	?
c1ccc(N2CCN(c3nc(N4CCCC4)c4nccnc4n3)CC2)cc1	-2%	8%
Nc1ccnn1C1CCCCC1	9%	0%
Cc1ccc2oc(-c3cccc(NC(=O)c4cccc5c(Cl)cccc45)c3)nc2c1	1%	17%
CCc1c(C)sc(NC(=O)c2cc(-c3cccc(C)c3)nc3ccccc23)c1C#N	24%	41%[activator]
CCc1ccc(OCC(=O)Nc2ccc3oc(-c4ccc(OC)cc4)nc3c2)cc1	-5%	28%
CCc1nc2ccc(C(=O)N3CCN(c4cc(Cl)ccc4C)CC3)cc2nc1CC	0%	18%
CC(C(=O)N(C)Cc1ccccc1)N(c1ccc(Oc2ccccc2)cc1)S(C)(=O)=O (centres undefined)	-25%	?
CCCCCCCCCCCCS(=O)(=O)CCS(=O)(=O)OCC(F)(F)C(F)F	-6%	-6%
Cc1ccccc1-c1nn2c(=O)cc(CN3CCN(C(=O)COc4ccccc4Cl)CC3)nc2s1	9%	-6%
COC(=O)CN1CCCC1Cc1ccc(OC)cc1 (centres undefined)	9%	7%
CCCCn1c(SCC(=O)Nc2ccc(OCC)cc2)nc2ccsc2c1=O	6%	-14%
Cn1c(=O)c2c(nc(NCc3cccs3)n2Cc2ccc(Cl)cc2)n(C)c1=O	-6%	2%
N#CCSC1=Nc2ccccc2CS1	-15%	10%
COc1ccc(Cl)cc1NC(=O)Cn1c2c(c(=O)n1-c1ccccc1)Cc1cccc(OC)c1O2	7%	43%[activator]
Cc1onc(-c2ccccc2Cl)c1-c1nc(-c2ccc(Br)cc2)no1	-4%	21%
Cc1ccccc1CNC(=O)c1nn(C)c(=O)c2ccccc12	72%[activator]	68%[activator]
COc1ccc(S(=O)(=O)N(CCc2ccccc2)CC(=O)NCc2ccc(C)cc2)cc1	97%[activator]	120%[activator]
CC(C)N1CCc2c(C#N)c(NCc3ccccc3)n3cnnc3c2C1	-10%	-17%
O=C(CCS(=O)(=O)c1cc(Br)cc2c1N(C(=O)C1CC1)CC2)N1CCN(c2ccc(F)cc2)CC1	29%	-14%
O=C(Nc1cccnc1)C1=C(c2ccccc2)S(=O)(=O)CCO1	25µM*	?
Cc1sc2nc(CN3CCOCC3)nc(Sc3nnnn3C3CCCC3)c2c1C	-15%	-12%
COc1ccccc1OCC(=O)N(Cc1ccc(N(C)C)cc1)CC1CCCO1 (centres undefined)	39%[activator]	-15%
COc1cccc(NC(=O)Cn2c(=O)n(-c3cccc(OC)c3)c(=O)c3sc4ccccc4c32)c1	-15%	15%
O=C(CCCCC(=O)NNC(=S)NC1CC1)NNC(=S)NC1CC1	-3%	-2%
CC(C)N(CCNC(=O)c1cc2cc(F)ccc2[nH]1)C(C)C	-6%	-3%
O=C(Nc1cccc(Br)c1)N1CCC(CN2CCCCC2)CC1	-16%	-18%
Cc1ccc(CCNC(=O)CN2C(=O)COc3ccc(S(=O)(=O)N4CCC(C)CC4)cc32)cc1	45%[activator]	-12%
O=c1c2ccccc2n2c(-c3ccc(Cl)cc3)nnc2n1CCc1ccccc1	5%	24%
CCCNC(=O)CN(C)Cc1nc(-c2ccccc2)oc1C	-6%	6%
Cc1ccccc1NC(=O)c1ccc(F)c(S(=O)(=O)N(C)C2CCCCC2)c1	1%	-23%
COc1cc(-c2noc(-c3ccc(NC4CCCC4)c([N+](=O)[O-])c3)n2)cc(OC)c1OC	-2%	-8%
COc1ccc(-c2noc(CN(C(=O)c3cc(OC)c(OC)cc3OC)C(C)C)n2)cc1	1%	13%
CC(=O)Nc1cccc(C(=O)N(C)C(C)c2cccs2)c1 (centres undefined)	63%[activator]	14%
COc1cccc(CC(=O)Nc2ccc(-c3nc4ccccc4s3)cc2Cl)c1	131%[activator]	104%[activator]
O=C(NCc1ccccc1)c1nn(Cc2ccccc2)c(=O)c2ccccc12	65%[activator]	22%
CCc1ccccc1NC(=O)CSc1ncc2c(n1)-c1ccccc1N(Cc1ccc(C)cc1)S2(=O)=O	-10%	-14%
COC(=O)CCC1CCCC/C1=N/O (centres undefined)	-7%[1.06 µM]	-5%
Cc1cc(F)ccc1NC(=O)CCSc1nc(-c2ccco2)cc(C(F)(F)F)n1	5%	-4%
Cc1ccc2nc(CSc3nnc(NC(=O)COc4ccccc4)s3)cc(=O)n2c1	11%	0%
CNc1snc(C)c1C(=O)N(C)CCOc1ccc(F)cc1	-4%	18%
CN(Cc1ccccc1)c1oc(/C=C/c2ccc(F)cc2)nc1C#N	9%	56%[activator]
C/C(=N\O)c1ccc(OCCCCCOc2ccc(/C(C)=N/O)cc2)cc1	3%	111%[activator]
CCn1c(SCc2nc(-c3ccccc3)oc2C)nc2c(=O)[nH]cnc21	56%[activator]	110%[activator]
COC(=O)c1cc(OC(=O)c2ccccc2)cc(C(=O)OC)c1	-12%	41%[activator]
COc1cc(OC)c(Nc2nc3ccccc3nc2NS(=O)(=O)c2cccc(C)c2)cc1Cl	5%	13%
Cc1ccc(/C(=N\NC(=O)C(C)C)c2ccccc2)cc1	2%	17%
Cc1cc(Cl)ccc1NC(=O)CCS(=O)(=O)c1cc2c(cc1C)NC(=O)CO2	4%	-16%
Cc1ccc2[nH]c(C)c(CC(=O)NCc3cn4ccc(C)cc4n3)c2c1	20%	2%
Cc1cccc(N(C)c2nc3ccc(C)cc3n3nnnc23)c1	-7%	-4%
COc1ccc(-c2csc3ncnc(Nc4ccccc4)c23)cc1	-6%	-17%
CNC(=O)CCc1cn(Cc2ccc(C)cc2)c2ccccc12	-4%	11%
CCCCn1nnnc1CSc1nnc(-c2ccccc2)n1-c1ccc(F)cc1	-2%	6%
O=C(Cn1nnc(-c2ccccc2)n1)N1CCCC(c2nc3ccccc3s2)C1 (centres undefined)	-4%	-3%
CCOc1ccccc1NS(=O)(=O)c1cc(-c2cnc(C3CC3)o2)ccc1C	80%[activator]	27%
CC(=O)Nc1ccc(/C=N/NC(N)=S)cc1	3%	-7%

Single records, as listed above.
`Cc1ccccc1NC(=O)c1ccc(F)c(S(=O)(=O)N(C)C2CCCCC2)c1` is listed with 2A Renilla = 1%; StopGo FLuc = -23%
`Cc1onc(-c2ccccc2Cl)c1-c1nc(-c2ccc(Br)cc2)no1` is listed with 2A Renilla = -4%; StopGo FLuc = 21%

Next part.
SMILES	2A Renilla	StopGo FLuc
COCCNC(=O)Cn1nc(C)c2ccccc2c1=O	-4%	3%
Cc1ccn2cc(-c3ccc(C)c(NS(=O)(=O)c4ccc(Cl)cc4)c3)nc2c1	150%[activator]	-33%
Cn1nnnc1SCCNCc1ccccc1OCc1ccc(Cl)cc1Cl	4%	?
CCOc1ccc(-c2cc(C(=O)NCc3ccncc3)c3ccccc3n2)cc1	74%[activator]	230%[activator]
COc1ccc2nc(NS(=O)(=O)c3ccc(C)cc3)c(Nc3ccc4c(c3)OCO4)nc2c1	-10%	6%
O=C(COc1ccc(F)cc1F)Nc1cccc2cccnc12	-15%	17%
CCOc1cc(/C=C2/NC(=O)NC2=O)ccc1OCc1ccccc1F	23%	0%
Cc1ccc(/C=C/c2onc(C)c2S(=O)(=O)N2CCC(C(=O)N3CCC(C)CC3)CC2)cc1	-2%	0%
N#CCc1nnc(-c2ccccc2)s1	-6%	60%[activator]
CCC(C)NC(=O)Cc1c(C)[nH]c2ccc(F)cc12 (centres undefined)	8%	7%
O=C(Nc1ccc(F)cc1)c1nc2ccccc2nc1N1CCOCC1	-10%	-9%
COc1ccc(NC(=O)c2c(NC(=O)COc3ccccc3)sc3c2CCC(C(C)(C)C)C3)cc1 (centres undefined)	10%	9%
CCOc1cc(CN2CCN(S(=O)(=O)c3ccc(C)cc3)CC2)ccc1OC	-1%	?
O=C(CN1CCCCC1)Nc1c(-c2ccccc2)c2cc(Br)ccc2[nH]c1=O	10%	31%[activator]
O=C(CSc1nc(-c2ccc(F)cc2)[nH]c1-c1ccc(F)cc1)Nc1ccc2c(c1)OCCO2	2%	?
CC(C)CC(=O)N1CCN(CC2CC=CCC2)CC1 (centres undefined)	-2%	-6%
O=C(O)CNS(=O)(=O)c1ccc(F)c(F)c1F	5%	-5%
c1cc2c(s1)C1CCCCC1OC21CN2CCC1CC2 (centres undefined)	-11%	-17%
O/N=C/c1ccc[n+](C/C=C/c2ccccc2)c1	-10%	3%
C#CC(C)(CC)NC(=O)Cn1nnc(-c2ccc(OCc3ccccc3F)cc2)n1 (centres undefined)	?	8%

2 compounds drawn at random from those above:
SMILES	2A Renilla	StopGo FLuc
CNC(=O)CCc1cn(Cc2ccc(C)cc2)c2ccccc12	-4%	11%
CCc1c(C)sc(NC(=O)c2cc(-c3cccc(C)c3)nc3ccccc23)c1C#N	24%	41%[activator]

Further compounds.
SMILES	2A Renilla	StopGo FLuc
COc1ccccc1-n1[nH]c(C)c(Cc2ccc(Cl)cc2)c1=O	-10%	-6%
COCCNC(=O)C1CCCN(S(=O)(=O)c2ccc3c(ccn3C)c2)C1 (centres undefined)	7%	-15%
Cc1cc(C)cc(N2CCn3c2nc2c3c(=O)n(CCc3ccccc3)c(=O)n2C)c1	-3%	-12%
O=C(Nc1ccc2c(c1)OCO2)C1CCN(C(=O)c2n[nH]c(=O)c3ccccc23)CC1	-11%	-12%
CCCCC(=O)Nc1c(C(=O)N2CCN(c3ccccc3)CC2)oc2ccccc12	-14%	0%
O=C(OCCOc1ccccc1)c1ccc2nccnc2c1	1%	138%[activator]
Cc1cccc(NC(=O)CSc2nc(-c3cccs3)nc3cc(=O)[nH]n23)c1	-14%	-6%
COc1cccc(C(=O)NCc2n[nH]c(=O)c3ccccc23)c1OC	4%	5%
O=C(CSCc1ccccc1)NNC(=S)NC1CC1	6%	9%
COC(=O)c1c(C)sc(-c2c(-c3cccc(OC)c3)[nH]c3c2c(=O)[nH]c(=O)n3C)c1O	12%	-14%
O=C(/C=C/c1ccccc1)c1cc2ccccc2oc1=O	58%[activator]	78%[activator]
O=C(CSc1nc(C2CC2)n(-c2ccccc2)n1)N1CCN(c2ccc(F)cc2)CC1	3%	-13%
CCC(C)(C)C1CCc2c(sc(NC(=O)c3cccc4ccccc34)c2C#N)C1 (centres undefined)	-1%	21%
Cc1ccc(SC(C)C(=O)c2ccccc2)cc1 (centres undefined)	47%[activator]	81%[activator]
CCCCCCCCc1ccc(-c2ccc(CCCC)cc2)nc1	9%	-26%
CCCc1cc(=O)n2nc(N(C)CC(=O)Nc3cccc(F)c3)sc2n1	2%	1%
Cc1ccc(C(=O)Nc2ccc(-c3nc4ccccc4s3)cc2)c(C)c1	1%	60%[activator]
Nc1ccc(N2CCN(c3ncc(C(F)(F)F)cc3Cl)CC2)c(C(F)(F)F)c1	25%	27%
CCC1CN(C(=O)Nc2cccc3c2CCCC3)c2cc(Cl)ccc2O1 (centres undefined)	4%	-19%
Cc1nn(C(=O)COc2ccccc2)c(C)c1S(=O)(=O)N1CCc2ccccc2C1	85%[activator]	1%

Gathered by group: the entries above containing a furan ring, fused or not
SMILES	2A Renilla	StopGo FLuc
CCCSc1nc2c(c(=O)[nH]1)C(c1ccc(C)o1)C1=C(CCCC1=O)N2 (centres undefined)	-3%	18%
Cc1cc(F)ccc1NC(=O)CCSc1nc(-c2ccco2)cc(C(F)(F)F)n1	5%	-4%
CCCCC(=O)Nc1c(C(=O)N2CCN(c3ccccc3)CC2)oc2ccccc12	-14%	0%

Continued.
SMILES	2A Renilla	StopGo FLuc
CC(=O)Nc1ccc(NC(=O)C(C)Cl)cc1 (centres undefined)	-8%	11%
CC1CCC(NC(=O)c2cc(Sc3ccccc3Cl)nc3ccccc23)CC1 (centres undefined)	95%[activator]	176%[activator]
Cc1nc(C(=O)NCc2cccs2)ccc1C#N	10%	11%
COc1ccc(CCN2C(=O)N(c3cccc(C)c3)C(=O)C2CC(=O)Nc2ccccc2)cc1OC (centres undefined)	31%[activator]	-6%
CCCN1Cc2cccc(C(=O)Nc3ccccc3C(=O)OC)c2C1=O	24%	-7%
C#CCN1CC(N2CCN(CCO)CC2)CS1(=O)=O (centres undefined)	-2%	2%
CCOc1cc(N)ccc1OC(F)F	-3%	39%[activator]
CCCCn1c(-n2nc(CC)cc2CC)nc2c1c(=O)n(CC(N)=O)c(=O)n2C	0%	8%
CCCCCCCCCCCCS(=O)CCCC (centres undefined)	-10%	9%
CC(=O)Nc1ccc(S(=O)(=O)N2CCC(NC(=O)CCC(C)C)CC2)cc1	4%	12%
CCOC(=O)c1c(NC(=O)/C=C/c2ccc(C)cc2)sc(C(C)=O)c1C	-10%	-16%
CCOC(=O)c1cc(OC(=O)c2ccc(OC)c(OC)c2)n(-c2ccccc2)n1	-4%	139%[activator]
O=c1cc(CN2CCN(Cc3ccccc3)CC2)c2cc(Cl)c(O)cc2o1	15%	41%[activator]
